VACV Venus inh – vaccinia inhibition (Venus reporter) | Vaccinia virus Venus reporter expression, fluorescence | Potency, µM (top dose mostly 36.5 µM), without a hit: at the top dose activity change, negative = inhibition, actives largely listed as inhibitors | hit rate 0.46% among 330,000 | AID 720580; active means well fitted inhibition curve with a large enough effect; inconclusive means small, poorly fitted or top-dose-only effect; inactive means no such curve, though single readings can be large or run the other way; tested in A549 cells; further: nearly all actives have a fitted effect of over 30% in size; inactives centre near -10
Vaccinia mCherry – vaccinia inhibition (mCherry reporter); Potency, µM (titrated, usually from 36.5 µM), inactives show top-dose activity change, negative = inhibition, actives largely listed as inhibitors; AID 720579; hit rate 0.63% among 310,000; Vaccinia virus mCherry reporter infection, fluorescence; about a quarter of the inactives have no number; active = well fitted inhibition curve with a large enough effect; inconclusive = small, poorly fitted or top-dose-only effect; inactive = no such curve, though single readings can be large or run the other way; tested in A549 cells; further: nearly all actives have a fitted effect of over 35% in size; inactives centre near -10
Starred values were filed as active, the others as inactive; i = inactive; ? = inconclusive; . = not tested or not shown; & = joins results of further samples; [ ] = another dose, or the depositor's remark. On the % scale 0 is the no-effect control and ±100 the full control effect; potency means the concentration at half of the fitted maximal effect.

Every second line gives: VACV Venus inh	Vaccinia mCherry
COC(=O)c1cccc(NC(=O)C2CCN(S(=O)(=O)Cc3ccccc3)CC2)c1C
  -2.2%	-7.0%
Cc1c(Cl)ccc2c(C(N)=O)cc(-c3ccccn3)nc12
  12.1%	-4.2%
COc1ccc2[nH]c3c(=O)n(Cc4ccncc4)cnc3c2c1
  -4.4%	-1.4%
COc1ccccc1N1CCN(C2CCCN(S(=O)(=O)c3cccc(Cl)c3)C2)CC1 (configuration not stated)
  -19.0%	-6.9%
CC(=O)c1cccc(NC(=S)NC2CCCCCCC2)c1
  -18.1%	-19.6%
Cc1noc(C(=O)NC2CCCCC2)c1Cl
  -4.3%	-11.1%
CC(=O)NNC(=O)c1csc(-c2csc(C)n2)n1
  -2.8%	i
O=C1c2cc(O)cc(O)c2C(=O)c2c1cc(O)c([C@@H](CO)CCO)c2O
  5.2%	-2.7%
CC(C)C1C(=O)N(Cc2cn(CCC3OCCO3)nn2)CCS(=O)(=O)N1Cc1ccc(-c2ccc(F)nc2)cc1 (configuration not stated)
  -17.9%	i
O=C(NCC1COc2ccccc2O1)c1cn(Cc2ccc(F)cc2)nn1 (configuration not stated)
  -20.1%	-26.5%
COc1ccc(C(=O)NCC(=O)Nc2cccc(S(=O)(=O)NCc3ccco3)c2)cc1OC
  12.8%	12.0%
CCOC(=O)c1c(C)n(S(=O)(=O)c2ccc(C)cc2C)c2ccc(NS(=O)(=O)c3ccc(C)cc3C)cc12
  -16.4%	-21.6%
CS(=O)(=O)Nc1cccc(NC(=O)c2cccc3c(-c4ccc(F)c(F)c4)coc23)c1
  -21.5%	-15.7%
COc1ccccc1NC(=O)CSc1nnc(C)n1Cc1ccccc1
  -0.2%	-4.1%
Cc1ccc(S(=O)(=O)NCC(=O)N(CC(=O)NC2CCCCC2)Cc2ccco2)cc1
  -17.6%	.
COc1ccc(-n2cc3c(-c4cccc(Br)c4)nnc(C)c3n2)cc1
  -1.6%	?
COc1ccc(NC(=O)CN(C)C(=O)c2ccc3c(c2)CC(c2ccccc2)OC3=O)cc1 (configuration not stated)
  -19.2%	i
O=C(NCc1ccc(Cl)cc1)C(=O)NCC(c1ccco1)N1CCOCC1 (configuration not stated)
  -2.3%	-14.2%
O=S(=O)(Nc1cccc(CO)c1)c1cccs1
  -6.3%	i
COc1ccc(-c2coc3cc4oc(=O)c5ccccc5c4cc23)cc1F
  -30.0%	-8.9%

2 consecutive compounds out of the list so far, for reference:
Every second line gives: VACV Venus inh	Vaccinia mCherry
O=S(=O)(Nc1cccc(CO)c1)c1cccs1
  -6.3%	i
COc1ccc(-c2coc3cc4oc(=O)c5ccccc5c4cc23)cc1F
  -30.0%	-8.9%

Further results
Every second line gives: VACV Venus inh	Vaccinia mCherry
COC(=O)C(NC(C)=O)(Nc1ccc(Br)cc1)C(=O)OC
  -1.3%	i
CC(=O)Nc1nc(-c2ccccc2)nc(C)c1C(C)=O
  -6.0%	.
COc1ccc(S(=O)(=O)N/N=C(/C)c2ccncc2)cc1OC
  -3.2%	i
CC(=O)c1c(C)[nH]c(C(=O)COC(=O)CCOc2ccc(C)cc2)c1C
  -13.7%	-19.1%
COc1ccc(CN2CCN(c3ncnc4sc5c(c34)CC(C)CC5)CC2)cc1F (configuration not stated)
  0.4%	i
COc1ccc(F)cc1-c1cc(C(=O)NCc2ccccc2)[nH]n1
  -21.6%	i
CCCCCCNCc1c(F)cccc1Cl
  -2.1%	-15.3%
NCCc1cnc[nH]1
  -11.3%&-9.9%&-10.5%	-11.5%&-9.8%
COCC(C)NC(=O)c1ccccc1[N+](=O)[O-] (configuration not stated)
  -11.2%	-9.6%
O=C(Cn1cnc2ccccc2c1=O)N(Cc1ccco1)c1ccc(O)cc1
  -4.7%	-0.7%
CCn1cc(Cl)c(C(=O)Nc2ccccc2C(N)=O)n1
  -23.5%	i
O=C(NC1CCCc2ccccc21)c1ccccn1 (configuration not stated)
  -3.5%	-8.9%
C=C1C2=C(C(=O)N1OC)[C@@H](O)[C@@](C)(O)[C@@H](CCCCC)O2
  1.1%	9.9%
Cc1ccc(C(=O)NCc2ccc3c(c2)CCO3)cc1C
  -9.5%	i
Cc1cccc(NC(=O)CNC(=O)COc2ccc(C(=O)c3ccc(F)cc3)cc2)c1C
  -14.9%	-11.0%
COc1ccc(C(=O)NCCn2cc(SC(C)c3ccccc3)c3ccccc32)cc1OC (configuration not stated)
  -28.4%	?
COc1ccc(C(=O)O/N=C(\N)Cc2cccs2)cc1OC
  -24.4%	-19.2%
CCN1C(=O)[C@H]2[C@@H](c3ccc(C)cc3)N3C(=O)N(c4cccc(Br)c4)C(=O)[C@@]3(C)[C@H]2C1=O
  -20.6%	?
CCOC(=O)C1CCN(C(=O)CN2C(=O)C(C(C)C)Oc3ccccc32)CC1 (configuration not stated)
  -15.2%	-12.7%
COCc1[nH]nc2c1C1(C(=O)Nc3ccc(F)cc31)C(C#N)=C(N)O2 (configuration not stated)
  1.1%	4.4%

2 compounds picked at random from the list so far:
Every second line gives: VACV Venus inh	Vaccinia mCherry
COc1ccc(F)cc1-c1cc(C(=O)NCc2ccccc2)[nH]n1
  -21.6%	i
Cc1ccc(C(=O)NCc2ccc3c(c2)CCO3)cc1C
  -9.5%	i

Additional structures.
Every second line gives: VACV Venus inh	Vaccinia mCherry
CCN(CC)P(=O)(/C=C(\Cl)c1ccccc1)/C=C(\Cl)c1ccccc1
  -5.0%	i
CCOC(=O)c1ccc(NS(=O)(=O)c2cccc3nsnc23)cc1
  -13.9%	.
Cc1cccc(-c2nc(Nc3ccc(O)cc3)c3ccccc3n2)c1
  -25.1%	-24.8%
O=[N+]([O-])c1cc([N+](=O)[O-])c(Oc2cncc(Cl)c2)cc1NN1CCCCC1
  ?	?
COc1ccccc1[C@H]1C(c2ccc(F)cc2)=NN(c2ccccc2)[C@@H]1CO
  -21.8%	-17.9%
COc1ccc(/C=N/NC(=O)c2ccccc2)cc1OS(=O)(=O)c1ccccc1
  -19.9%	-16.3%
CCOC(=O)c1cc(-c2ccc(OC)cc2)nn1-c1ccc(C(=O)O)cc1
  -2.3%	i
CC(C)C(N)c1csc(Nc2nncc3ccccc23)n1 (configuration not stated)
  -9.5%	-3.9%
CCS(=O)(=O)N1CCN=C1SCc1cccnc1
  -5.5%	i
C[C@@H](c1ccccc1)N1C[C@H](COCc2ccccc2)Oc2cc(N3CC[C@H](O)C3)ccc2S1(=O)=O
  2.3%	i
COc1ccccc1-c1nnc(NC(=O)C(C)C)s1
  -17.9%	.
COc1cc(NC(=S)N2CCCC(CO)C2)c(OC)cc1Cl (configuration not stated)
  9.6%	i
CCOC(=O)[C@@H]1[C@H]2COc3ccc(Br)cc3[C@@H]2N2C(=O)N(c3ccc(Cl)cc3)C(=O)[C@@]12C
  -24.6%	-12.0%
Cc1c(Cc2ccccc2)c(NCCN(C)C)n2c(nc3ccccc32)c1C#N
  -5.0%[7.34 µM]	9.4%[7.34 µM]
COc1ccc(NC(=O)CN2C(=O)C(c3ccc(C(C)(C)C)cc3)=NC2(C)C)cc1Cl
  -10.7%	-18.6%
O=C(COc1ccc(C(=O)c2ccccc2)cc1)NCC1CCCCC1
  -20.1%	-0.2%
Nc1c(C(=O)NCc2ccccc2)nnn1Cc1ccccc1
  -11.0%	-25.7%
CNS(=O)(=O)c1ccc(NC(=O)c2ccccn2)cc1
  -16.3%	-13.5%
COC(=O)[C@]12CCCCC=C1N(Cc1ccc3c(c1)OCO3)C(=O)[C@H](CC(=O)N1CCN(C(=O)C3CC3)CC1)C2
  -8.7%	-6.2%
Cc1ccc(NC(=O)CCNC(=O)Cn2cnc3ccccc3c2=O)cc1F
  -2.5%	-13.3%

Record cards (already shown). Values in the order: VACV Venus inh, Vaccinia mCherry
CNS(=O)(=O)c1ccc(NC(=O)c2ccccn2)cc1 is entered as -16.3%, -13.5%
COc1ccccc1-c1nnc(NC(=O)C(C)C)s1 is entered as -17.9%, .

Continued:
Every second line gives: VACV Venus inh	Vaccinia mCherry
Cc1cc(Cl)c(S(=O)(=O)N2CCN(c3ccccn3)CC2)cc1OCC(N)=O
  -5.3%	i
Cc1ccc(S(=O)(=O)NCCSCc2ccco2)cc1
  -1.4%	i
CC(=O)NC(NC(=S)Nc1ccc(N=Nc2ccccc2)cc1)C(Cl)(Cl)Cl (configuration not stated)
  14.1µM*	12.6µM*
O=C(COc1ccccc1)OCc1cc(=O)n2nc(C3CC3)sc2n1
  3.1%	-12.3%
Fc1ccc2c(c1)nnn2C1CCN(Cc2ccccc2)CC1
  ?	-7.5%
NS(=O)(=O)c1cccc(NC(=O)CSc2ccccn2)c1
  -15.8%	-24.1%
Nc1nc(SCC(=O)N2N=C(c3ccc(Cl)cc3)CC2c2ccco2)n[nH]1 (configuration not stated)
  0.0%[7.34 µM]	i[7.34 µM]
Cc1ccc(S(=O)(=O)Oc2ccc(/C=N/N=C3/NC(=O)C(CC(=O)O)S3)cc2)cc1[N+](=O)[O-] (configuration not stated)
  -5.4%	-2.0%
Cc1cn[nH]c1
  -14.6%	i
CC(C)(C)C(=O)Nc1ccccc1C(=O)N1CCCC1
  -11.5%	-1.4%
CCN(c1ccccc1)S(=O)(=O)c1ccc(Cl)c(NC(=O)CNC(C)c2ccccc2)c1 (configuration not stated)
  ?	?
CCOC(=O)C1CN(C(C)(C)C)C(=O)C1=O (configuration not stated)
  -29.1%	-13.8%
CCCn1c(SCC(=O)NC2CCCCC2)nnc1-c1ccco1
  -6.8%	-12.2%
C=CCc1c(C)c(C#N)c2nc3ccccc3n2c1NCCN(C)C
  -14.7%	-20.0%
Cc1cccc(C)c1NC(=O)/C(C#N)=C/c1cccs1
  2.6%	-9.0%
CCc1ccccc1NC(=O)C1CCCN(c2ncnc3onc(C)c23)C1 (configuration not stated)
  ?	?
CN(C(=O)CSc1nncn1-c1ccccc1)C1CCS(=O)(=O)C1 (configuration not stated)
  -7.5%	-10.7%
O=c1ccc2cc(S(=O)(=O)NCc3ccc(Cl)cc3)ccc2[nH]1
  -4.0%	-2.1%
Cc1ccc(N2CC(C(=O)Nc3ccc(S(=O)(=O)Nc4nccc(C)n4)cc3)CC2=O)cc1 (configuration not stated)
  -4.7%	i
Cc1nnc(SCC(=O)N/N=C/c2ccc(-c3ccc(C)c(Cl)c3)o2)s1
  -21.0%	-5.3%

The list goes on.
Structure	VACV Venus inh	Vaccinia mCherry
CCOC(=O)c1oc2ccccc2c1COC(=O)CNC(=O)c1ccc(C)cc1	1.7%	-21.8%
Cc1cc(F)ccc1NC(=O)CCc1c(C)nn(-c2ccc(N3CCCCC3)nn2)c1C	-8.4%	-12.7%
O=C(CCCCCCCC(=O)NNC(=O)Nc1ccccc1)NNC(=O)Nc1ccccc1	-1.3%	i
CC(=O)Nc1cccc(NC(=O)Cc2csc(COc3cccc(C)c3)n2)c1	-26.0%	-22.3%
C[C@@H]1CN([C@H](C)CO)S(=O)(=O)c2ccc(C#CC3CCCC3)cc2O[C@H]1CN(C)C(=O)Cc1ccccc1	?	?
O=C(NCc1ccccc1)Nc1cccn(Cc2cccc(F)c2)c1=O	-11.6%	-14.6%
Nc1ncnc2nc(Cl)[nH]c12	0.0%	i
COC(=O)c1sc(N2C(=O)c3oc4cc(C)c(C)cc4c(=O)c3C2c2ccccc2F)nc1C (configuration not stated)	-9.7%	5.8%
Cn1c(=O)[nH]c(=O)c2c1nc(N1CCCCC1)n2CCSc1nc2ccccc2o1	-9.2%	-10.8%
COc1ccc(-n2cc3ccc([N+](=O)[O-])cc3n2)cc1	4.0%	?
Cc1nc2sccn2c1CN1CCOc2ccc(CN3CCN(c4ccc(F)cc4)CC3)cc2C1	-22.5%	-21.0%
CCN1CCN(C(c2ccc(C)cc2)c2c(O)cc(C)n(Cc3ccco3)c2=O)CC1 (configuration not stated)	-2.9%	-11.3%
O=C(Nc1ccc(Cl)cc1)C(NS(=O)(=O)c1cccs1)c1ccccc1 (configuration not stated)	-1.4%	-2.4%
CCN(CC)c1ccc(NC(=O)CSc2nc3ccccc3c(=O)n2-c2cc(S(=O)(=O)N(C)C)ccc2C)cc1	-20.9%	-6.8%
COc1ccc(CNC(=O)c2cc3cc(OC)ccc3oc2=O)cc1	-21.4%&-16.3%	-26.4%&-18.2%
N=C1C(c2ccccc2)=C(O)CN1Cc1ccco1	-0.2%	-12.5%
COc1ccc(S(=O)(=O)N2CCOCC2)cc1NC(=O)c1c(-c2ccccc2)noc1C	-3.2%	-0.1%
O=C(c1cccnc1)N1CCC(Oc2ccc(C(=O)N3CCCC(O)C3)cc2)CC1 (configuration not stated)	0.2%	-15.9%
COc1ccc(NC(=O)/C=C/c2ccc(Br)o2)cn1	-7.2%	-1.7%
Cc1ccc(C(=O)C(=S)N2CCOCC2)cc1	-23.2%	-12.6%
CC(C)NC(=O)CSc1nc2ccccc2c(=O)n1Cc1ccc(C(=O)NC(C)C)cc1	-5.7%	-1.6%
CCn1c(SCC(=O)Nc2ccccc2C(=O)OC)nnc1-c1ccc(N)cc1	-9.0%	i
Cc1ccc(CSc2nc3c(c(N(C)C)n2)CCCC3)cc1	?	-26.8%
c1cncc(-c2cnc3ccccc3c2)c1	-8.7%	-6.5%

Single entries from the list.
VACV Venus inh with c1cncc(-c2cnc3ccccc3c2)c1 stands at -8.7%
Vaccinia mCherry with COc1ccc(CNC(=O)c2cc3cc(OC)ccc3oc2=O)cc1 stands at -26.4%&-18.2%
VACV Venus inh with COc1ccc(S(=O)(=O)N2CCOCC2)cc1NC(=O)c1c(-c2ccccc2)noc1C stands at -3.2%
VACV Venus inh with CCN1CCN(C(c2ccc(C)cc2)c2c(O)cc(C)n(Cc3ccco3)c2=O)CC1 (configuration not stated) stands at -2.9%

Screens from PubChem.
